Compound activity as filed in PubChem BioAssay.
STAT3 SMM: STAT3 binders, primary screen, biochemical, small molecule microarray, single point, set 2. Signal transducer and activator of transcription 3 (Homo sapiens), P40763. His-STAT3 binding, anti-His fluorescence. calls only. actives 0.2% (n = 17,000). AID 624138, 2012;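 active means compounds whose four printed spots each show fluorescence over background unusually high for their array block, chance value under 7%; compounds were printed on slides so no solution concentration is given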;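 further: about 2 pmol printed per array spot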
mut p53 SMM: binders of human mutant p53, primary screen, biochemical, small molecule microarray, anti-GST fluorescence | small molecule microarray binding | actives 0.4% (n = 17,000) | mutant tumor protein p53 (GST-tagged), Homo sapiens | calls only | AID 624136, 2012;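 active means compounds whose four printed spots each glow above background more than chance allows, each with a p-value under 7%; compounds were printed on slides so no solution concentration is given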;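 further: about 2 pmol printed per array spot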
ID4 SMM: binders of human ID4 protein, primary screen, biochemical, small molecule microarray, single point | actives 1.2% (n = 31,000) | Flag-ID4 binding, fluorescence F/B | DNA-binding protein inhibitor ID-4 (Homo sapiens), P47928 | calls only;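 active means spot signal over background at p below 0.07 in all four prints; compounds were printed on slides so no solution concentration is given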;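 further: a binder raises fluorescence above local background on the spot; about 2 pmol printed per array spot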
Target sequence (P47928 whole entry, looked up): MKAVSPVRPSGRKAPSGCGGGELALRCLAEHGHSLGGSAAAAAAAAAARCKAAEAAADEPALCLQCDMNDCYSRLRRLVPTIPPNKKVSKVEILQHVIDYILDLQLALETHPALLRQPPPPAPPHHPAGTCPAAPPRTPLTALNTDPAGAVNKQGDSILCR
c-Myc SMM: binders of human c-Myc, primary screen, biochemical, small molecule microarray, anti-His fluorescence | His-c-Myc binding | calls only | actives 1.5% (n = 17,000) | AID 624141, 2012;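 active means spot fluorescence over background with P-value below 7% in all four replicate spots, showing protein binding; compounds were printed on slides so no solution concentration is given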;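 further: score is binary with 100 for all four spots passing and 0 otherwise; about 2 pmol printed per array spot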
Target sequence (P01106 whole entry, looked up): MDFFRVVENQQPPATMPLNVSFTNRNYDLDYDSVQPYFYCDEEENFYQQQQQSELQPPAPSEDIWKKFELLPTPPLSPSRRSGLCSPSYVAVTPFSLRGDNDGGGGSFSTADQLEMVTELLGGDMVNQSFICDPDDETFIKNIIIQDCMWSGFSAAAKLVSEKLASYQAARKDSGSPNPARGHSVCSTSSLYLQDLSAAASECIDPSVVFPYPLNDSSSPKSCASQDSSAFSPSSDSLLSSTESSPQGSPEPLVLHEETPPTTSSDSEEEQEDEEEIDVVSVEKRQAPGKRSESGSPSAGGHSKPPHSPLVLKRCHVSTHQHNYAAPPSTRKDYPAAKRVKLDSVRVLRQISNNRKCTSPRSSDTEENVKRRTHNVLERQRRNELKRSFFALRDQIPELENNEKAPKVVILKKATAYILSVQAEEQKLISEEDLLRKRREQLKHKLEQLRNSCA
Calls only; i = inactive; / = not tested or not shown; + = active, no number. Rows were taken by chance; any-hit rate near 3.7%.

canonical_smiles,STAT3 SMM,mut p53 SMM,ID4 SMM,c-Myc SMM
Cc1noc(C)c1S(=O)(=O)N(C)C[C@@H]1Oc2ccc(NC(=O)Nc3cccc4ccccc34)cc2CC(=O)N([C@H](C)CO)C[C@@H]1C,i,i,i,i
C[C@H]1CN([C@@H](C)CO)C(=O)c2cc(N(C)C)ccc2O[C@@H]1CN(C)CC1CCCCC1,i,i,i,i
COC(=O)C(NC(=O)c1ccc([N+](=O)[O-])o1)C(C)C (configuration not stated),i,i,i,i
COc1ccc(OC)c(NC(=O)CSc2nnc(-c3ccccc3)n2-c2ccccc2)c1,i,i,i,i
C[C@@H]1CN([C@H](C)CO)C(=O)c2cc(NS(=O)(=O)c3ccccc3)ccc2O[C@@H](C)CCCCO[C@@H]1CN(C)S(=O)(=O)c1cn(C)cn1,i,i,/,i
C[C@H](CO)N1C[C@H](C)[C@@H](CN(C)C)OCCCC[C@H](C)Oc2ccc(NC(=O)C3CCCCC3)cc2C1=O,i,i,i,i
CC(C(=O)Oc1cccc2cccnc12)N1C(=O)c2ccccc2C1=O (configuration not stated),i,i,i,i
CCOC(=O)c1c(NC(=O)c2ccc(N(C)S(C)(=O)=O)cc2)sc2c1CCCC2,i,i,i,i
O=C(COc1ccccc1[N+](=O)[O-])Nc1ccc(O)c(-c2nc3ccccc3s2)c1,i,i,i,i
C[C@H](CO)N1C[C@H](C)[C@@H](CN(C)C(=O)Nc2ccc3c(c2)OCO3)Oc2c(NC(=O)C3CCOCC3)cccc2C1=O,i,i,i,i
CSc1nsc(SCC(=O)N2CCc3ccccc32)n1,i,i,i,i
O=C(OC1C=C(CO)C2C(OC3OC(CO)C(O)C(O)C3O)OC=CC12O)c1ccc(O)cc1 (configuration not stated),i,i,/,i
COC(=O)C(CC#Cc1ccc2c(c1)[C@]1(C(=O)N2)[C@H](c2ccccc2OCCO)N2[C@H](c3ccccc3)[C@H](c3ccccc3)OC(=O)[C@H]2[C@@H]1C(N)=O)C(=O)OC,i,i,/,i
NC(=O)C1=C[C@H](c2csc3ccccc23)C[C@H](OCc2ccc(CO)cc2)O1,i,i,i,i
C[C@H](CO)N1C[C@H](C)[C@@H](CN(C)Cc2ccc3c(c2)OCO3)Oc2c(NS(=O)(=O)c3ccc(Cl)cc3)cccc2C1=O,i,i,i,i
Cc1sc(NC(=O)CCn2cnc3ccccc3c2=O)c(C#N)c1C,i,i,i,i
C[C@H](CO)N1C[C@H](C)[C@H](CN(C)C)OCCCC[C@H](C)Oc2ccc(NC(=O)Nc3ccc(F)cc3)cc2C1=O,i,i,i,i
C[C@@H]1CN([C@@H](C)CO)C(=O)Cc2cc(NC(=O)CCC(F)(F)F)ccc2O[C@H]1CN(C)C,i,i,i,i
N#Cc1ccccc1OCCCn1cnc2ccccc21,i,i,i,i
O=[N+]([O-])c1ccccc1NCCNS(=O)(=O)c1ccc(Br)cc1,i,i,i,i
COc1ccccc1N1CCN(CCC(=O)Nc2ccc(Br)c(C)c2)CC1,i,i,i,i
C[C@@H]1CCCCO[C@H](CN(C)C(=O)NC2CCCCC2)[C@@H](C)CN([C@@H](C)CO)C(=O)c2cc(N(C)C)ccc2O1,i,i,/,i
C[C@H]1CN([C@@H](C)CO)C(=O)c2cc(NC(=O)NC3CCCCC3)ccc2O[C@H]1CN(C)Cc1ccc(C(=O)O)cc1,i,i,i,i
COc1ccc(NC(=O)N(C)C[C@@H]2Oc3ccc(NS(=O)(=O)c4ccccc4)cc3C(=O)N([C@H](C)CO)C[C@H]2C)cc1,i,i,i,i
COc1ccc(S(=O)(=O)N(C)C[C@H]2Oc3ccc(NC(=O)c4ccncc4)cc3C(=O)N([C@@H](C)CO)C[C@@H]2C)cc1,i,i,i,i
Cc1ccc(-c2nc(S(=O)(=O)c3ccc(F)cc3)c(NCc3ccco3)o2)cc1,i,i,i,i
COC(=O)c1ccccc1NC(=O)CNC(=O)c1ccco1,i,i,i,i
CC(=O)n1cc([C@@H]2C=C(C(=O)NCc3ccccc3)O[C@H](OCc3ccc(CO)cc3)C2)c2ccccc21,i,i,/,i
C#Cc1ccc([C@@H]2C=C(C(=O)NCc3ccccc3)O[C@H](OCc3ccc(CO)cc3)C2)cc1,i,i,i,i
C[C@@H]1CN([C@@H](C)CO)C(=O)Cc2cc(NS(=O)(=O)c3cccs3)ccc2O[C@H]1CN(C)S(=O)(=O)c1ccccc1,i,i,i,i
Cn1c(SCc2nc3ccccc3s2)nnc1-c1cccs1,i,i,i,i
C[C@H](CO)N1C[C@H](C)[C@H](CN(C)Cc2ccc3c(c2)OCO3)Oc2c(NC(=O)C3CCOCC3)cccc2C1=O,i,i,i,i
C[C@@H]1CN([C@@H](C)CO)C(=O)c2cc(N(C)C)ccc2O[C@@H](C)CCCCO[C@@H]1CN(C)C(=O)CCC(F)(F)F,i,i,i,i
C[C@@H]1CN([C@@H](C)CO)C(=O)c2cc(NS(C)(=O)=O)ccc2O[C@H]1CN(C)S(=O)(=O)c1cccs1,i,i,i,i
C[C@@H]1CN([C@@H](C)CO)C(=O)c2cc(NC(=O)CCN3CCOCC3)ccc2O[C@H]1CN(C)C(=O)Nc1cccc2ccccc12,i,i,i,i
Cc1ccc(S(=O)(=O)NC(=O)CSc2nc3ccccc3s2)cc1,i,i,i,+
C[C@@H]1CN([C@H](C)CO)C(=O)CCCn2cc(nn2)CO[C@H]1CN(C)C(=O)c1ccccc1,i,i,i,i
CCCN(CCC)CC1CCCCN1CCNC(=O)N1c2ccccc2C(=O)Nc2cccnc21 (configuration not stated),i,+,i,i
CNC(=O)[C@H]1O[C@@H](n2cnc3c(NCc4cccc(I)c4)ncnc32)C(O)[C@H]1O (some centres not stated),i,i,i,i
C[C@@H]1CN([C@@H](C)CO)C(=O)Cc2cc(NC(=O)Nc3ccc(F)cc3)ccc2O[C@@H]1CN(C)Cc1ccncc1,i,i,i,i
CCc1c(C)sc(NC(=O)c2ccc(Cn3nc(C)c(Cl)c3C)o2)c1C(N)=O,i,i,i,i
CCOC(=O)c1c(NC(=O)C2CC(c3cccc(Br)c3)=NO2)sc(C)c1C (configuration not stated),i,i,i,i
Cc1noc(C)c1NC(=O)N(C)C[C@@H]1Oc2ccc(NS(=O)(=O)c3cccs3)cc2C(=O)N([C@H](C)CO)C[C@@H]1C,i,i,i,i
C[C@@H]1CN([C@H](C)CO)C(=O)Cc2cc(NS(=O)(=O)c3cn(C)cn3)ccc2O[C@H]1CN(C)C(=O)Nc1ccc(F)cc1,i,i,/,i
C[C@@H]1CN([C@H](C)CO)C(=O)c2cc(NS(=O)(=O)c3cccs3)ccc2O[C@@H]1CN(C)C,i,i,i,i
Cc1ccc(S(=O)(=O)Nc2ccc3c(c2)C(=O)N([C@@H](C)CO)C[C@@H](C)[C@H](CN(C)C(=O)NC2CCCCC2)OCCCC[C@@H](C)O3)cc1,i,i,/,i
Cc1cc(C)cc(Oc2c(C(F)(F)F)oc3cc(OCC(=O)O)ccc3c2=O)c1,i,i,i,+
C[C@H]1CN([C@@H](C)CO)C(=O)c2cc(NC(=O)Cc3ccccc3)ccc2O[C@@H]1CN(C)CC1CC1,i,i,i,i

Ordered by length of the SMILES (smallest number first): part of the list above.
canonical_smiles,STAT3 SMM,mut p53 SMM,ID4 SMM,c-Myc SMM
CCOC(=O)c1c(NC(=O)C2CC(c3cccc(Br)c3)=NO2)sc(C)c1C (configuration not stated),i,i,i,i
CCc1c(C)sc(NC(=O)c2ccc(Cn3nc(C)c(Cl)c3C)o2)c1C(N)=O,i,i,i,i
Cc1ccc(S(=O)(=O)Nc2ccc3c(c2)C(=O)N([C@@H](C)CO)C[C@@H](C)[C@H](CN(C)C(=O)NC2CCCCC2)OCCCC[C@@H](C)O3)cc1,i,i,/,i

(continued)
canonical_smiles,STAT3 SMM,mut p53 SMM,ID4 SMM,c-Myc SMM
C[C@@H](NC(=O)/C(C#N)=C/c1ccc(O)c(O)c1)c1ccccc1,i,i,i,i
CC(C)NC(=O)N(C)C[C@@H]1OCCCC[C@H](C)Oc2ccc(NC(=O)CCC(F)(F)F)cc2C(=O)N([C@H](C)CO)C[C@@H]1C,i,i,i,i
Cc1noc(C)c1NC(=O)Nc1ccc2c(c1)C(=O)N([C@H](C)CO)C[C@H](C)[C@@H](CN(C)C(=O)Nc1c(C)noc1C)O2,i,i,i,i
C=C(C)C(=O)O[C@H]1C[C@@]2(C)O[C@@H]2[C@H]2O[C@H]2C(=C)[C@@H](O)[C@H]2OC(=O)C(=C)[C@@H]21,i,i,/,i
CC(=O)O[C@H]1C[C@@H](OC(C)=O)C(C)(C)C2C[C@@H](O)[C@]3(C)C(CC[C@@]4(C)[C@H](c5ccoc5)OC(=O)C5OC543)[C@]21C (some centres not stated),i,i,i,i
COC(=O)[C@@]1(Cc2ccccc2N=[N+]=[N-])N=C(c2ccc(OCCCO)cc2)O[C@H]1c1ccccc1,i,i,/,i
COC(=O)c1ccc([C@H]2C=C(C(=O)N3CCN(Cc4ccc5c(c4)OCO5)CC3)O[C@@H](OCc3ccc(CO)cc3)C2)cc1,i,i,i,i
CCOC(=O)CN(C#N)c1nc(C)cc(C)n1,i,i,i,i
C[C@@H]1CN([C@@H](C)CO)C(=O)c2cc(NC(=O)Nc3ccc4c(c3)OCO4)ccc2O[C@@H]1CN(C)S(=O)(=O)c1ccc(F)cc1,i,i,i,i
CNC[C@@H]1Oc2c(NC(=O)c3cc(C)nn3C)cccc2C(=O)N([C@@H](C)CO)C[C@H]1C,i,i,i,i
Cn1cnnc1SCC(=O)c1cc2ccccc2oc1=O,i,i,i,i
C[C@@H]1CN([C@@H](C)CO)C(=O)Cc2cc(NC(=O)Cc3ccccc3)ccc2O[C@@H]1CN(C)Cc1ccncc1,i,i,i,i
C[C@H](CO)N1C[C@H](C)[C@H](CN(C)C(=O)Nc2ccccc2)Oc2ccc(NC(=O)NC3CCCCC3)cc2CC1=O,i,i,i,i
Cc1noc(C)c1NC(=O)N(C)C[C@@H]1Oc2c(NC(=O)C3CCOCC3)cccc2C(=O)N([C@@H](C)CO)C[C@@H]1C,i,i,i,i
Cc1ccc(S(=O)(=O)Nc2ccc3c(c2)CC(=O)N([C@H](C)CO)C[C@@H](C)[C@@H](CN(C)Cc2ccncc2)O3)cc1,i,i,i,i
COC(=O)C[C@@H]1C(C(=O)O)=CO[C@@H](O[C@@H]2O[C@H](CO)[C@@H](O)[C@H](O)[C@H]2O)/C1=C\COC(=O)/C=C/c1ccccc1,i,i,i,i
N#CCCN(CCC#N)C(=O)c1ccco1,i,i,i,i
C[C@@H]1CN([C@@H](C)CO)C(=O)c2cc(NC(=O)NC3CCCCC3)ccc2O[C@@H]1CN(C)C(=O)Nc1ccc2c(c1)OCO2,i,i,i,i
C[C@@H]1CCCCO[C@H](CN(C)S(=O)(=O)c2cn(C)cn2)[C@@H](C)CN([C@H](C)CO)C(=O)c2cc(NS(C)(=O)=O)ccc2O1,i,i,i,i
CC(=O)n1cc([C@@H]2C=C(C(=O)N3CCN(Cc4ccccc4)CC3)O[C@H](OCCCCO)C2)c2ccccc21,i,i,i,i
Cc1ccc(-n2c(Cn3c(-c4ccccn4)nc4ccccc43)n[nH]c2=S)c(Br)c1,i,i,i,i
CC(C)Oc1ccc2c(=O)c3cc(C(=O)O)ccc3oc2c1,i,i,i,i
C[C@H]1CN([C@@H](C)CO)C(=O)c2cccc(NC(=O)Nc3cccc4ccccc34)c2O[C@@H]1CN(C)C(=O)Nc1ccc(F)cc1,i,i,i,i
C[C@H](CO)N1C[C@H](C)[C@@H](CN(C)S(=O)(=O)c2cccs2)Oc2ccc(N(C)C)cc2C1=O,i,i,i,i
COc1cccc2cc(C(=O)N3CCN(CCN4C(=O)c5cccc6cccc(c56)C4=O)CC3)c(=O)oc12,i,i,i,i
C/C(=C\Cc1c(O)ccc2cc(O)c(=O)oc12)COC1OC(CO)C(O)C(O)C1O (configuration not stated),i,i,i,i
CC1(C)C[C@H]2C3=CCC4[C@@]5(C)CC[C@H](O[C@@H]6O[C@H](CO)[C@@H](O)[C@H](O)[C@H]6O)C(C)(C)C5CC[C@@]4(C)[C@]3(C)CC[C@@]2(C(=O)O[C@@H]2O[C@H](CO)[C@@H](O)[C@H](O)[C@H]2O)CC1O (some centres not stated),i,i,/,i
CC(C)[C@H](NC(=O)[C@H](C)N(C)C)C(=O)N1CC[C@@H]2Oc3ccc(cc3)/C=C\NC(=O)[C@H](Cc3ccccc3)NC(=O)C21 (some centres not stated),i,i,/,i

Whole records as entered above. Order of values: STAT3 SMM	mut p53 SMM	ID4 SMM	c-Myc SMM
`C/C(=C\Cc1c(O)ccc2cc(O)c(=O)oc12)COC1OC(CO)C(O)C(O)C1O` (configuration not stated) across the screens: i	i	i	i
`CC(C)[C@H](NC(=O)[C@H](C)N(C)C)C(=O)N1CC[C@@H]2Oc3ccc(cc3)/C=C\NC(=O)[C@H](Cc3ccccc3)NC(=O)C21` (some centres not stated) across the screens: i	i	/	i
`CC1(C)C[C@H]2C3=CCC4[C@@]5(C)CC[C@H](O[C@@H]6O[C@H](CO)[C@@H](O)[C@H](O)[C@H]6O)C(C)(C)C5CC[C@@]4(C)[C@]3(C)CC[C@@]2(C(=O)O[C@@H]2O[C@H](CO)[C@@H](O)[C@H](O)[C@H]2O)CC1O` (some centres not stated) across the screens: i	i	/	i
`COc1cccc2cc(C(=O)N3CCN(CCN4C(=O)c5cccc6cccc(c56)C4=O)CC3)c(=O)oc12` across the screens: i	i	i	i
